# Screening data deposited in PubChem BioAssay by National Center for Advancing Translational Sciences (NCATS).
# ClpP mod – qHTS Assay for Activators of ClpP; purified B. subtilis ClpP, FRET peptide cleavage, 20 min; Potency, µM (doses to about 57.5 µM), for inactives: at the top dose activity change, negative = active; 340,000 tested, 1.9% active; AID 651965, 2013; active = well fitted falling curve with a large enough effect; inconclusive = small, poorly fitted or top-dose-only effect; inactive = no such curve, though single readings can be large or run the other way; also: the source files actives as falling curves though it sought activators and does not explain the sign; nearly all actives have a fitted effect of over 65% in size; many hits overshoot -100%
# Target sequence (P80244 whole entry, looked up): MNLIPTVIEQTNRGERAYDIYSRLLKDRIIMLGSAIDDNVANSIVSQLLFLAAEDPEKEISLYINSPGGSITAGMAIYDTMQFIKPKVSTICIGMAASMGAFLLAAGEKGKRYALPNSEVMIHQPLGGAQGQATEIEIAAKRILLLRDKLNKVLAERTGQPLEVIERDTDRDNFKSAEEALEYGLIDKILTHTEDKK
#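 ClpP 10 microg/mL final, pH 8 Tris/KCl buffer with BSA, glycerol, Tween-20; compound pinned in; FRET-FV substrate; RT 20 min; Ex320/Em430; ΔFRET vs ADEP 5.8 microM, DMSO, no enzyme.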
# Active calls of the source: *; u = inconclusive. Potency is read from the fitted curve at half-maximal effect. This is a subset. The share of hits here may be higher or lower than overall.
SMILES,ClpP mod
COC(=O)[C@]12CCCCC=C1N(Cc1cccc3ccccc13)C(=O)[C@H](CC(=O)NCc1ccccc1)C2,0.2%
O=C(Nc1cccc(F)c1)Nc1nnc([C@@H]2C[C@H](O)[C@@H](CO)O2)s1,-1.5%
COc1ccc(OC)c(C=C2CCc3ccccc3C2=O)c1,0.4%
Nc1ncnc2c1[nH]c(=S)n2C1OC(CO)C(O)C1O (stereo not drawn),-0.3%
Cc1ccccc1CN1C(=O)c2ccccc2C1c1nnnn1Cc1ccccc1 (stereo not drawn),0.7%
CCC(CO)Nc1ccn2nc(-c3ccccc3)cc2n1 (stereo not drawn),u
O=C1C=CC(c2c[nH]c3ccccc23)CC1 (stereo not drawn),-1.2%
CN(N=O)c1ccc(/C=C/c2ccnc3ccccc23)cc1,0.9%
O=S1(=O)CC(N2CCC(c3ccccc3)CC2)CN1Cc1ccccc1 (stereo not drawn),-0.1%
O=C(c1cnn2c1NC(=C1CC1)C=C2C(F)F)N1CCc2ccccc2C1,1.0%
O=C(Nc1ccc(Cl)cc1)c1csc([C@@H]2C[C@H](O)[C@@H](CO)O2)n1,1.6%
COC(=O)[C@@]12C[C@@H](CC(=O)N3CCCC3)C(=O)N(Cc3cccc4ccccc34)C1=CCC(C)(C)C2,-0.7%
CCCN(C)C1CN(Cc2cn(CCCC(=O)OC)nn2)S(=O)(=O)C1 (stereo not drawn),-0.4%
O=C(NCCC1=CCCCC1)c1[nH]c(C(F)(F)F)nc1-c1ccccc1,-0.8%
CCNC(=O)C1(C)CCN(Cc2ccc(-c3ccccc3)cc2)C1 (stereo not drawn),-4.8%
Cc1ccc(S(=O)(=O)N2C[C@H]3C(=O)C[C@@H](c4cccc(C)c4)N(S(=O)(=O)c4ccc(C)cc4)[C@H]3C[C@H]2c2ccccc2)cc1,1.3%
CCOC(=O)[C@]12CCC=C1N(CCC1=CCCCC1)C(=O)[C@H](CC(=O)N1CCOCC1)C2,0.7%
CCc1nc2c(OCc3ccc4c(c3)OCO4)cccn2c1N(C=O)Cc1ccccc1,-2.4%
COc1cc2c(NC3CCN(C)CC3)nc(N3CCCN(C)CC3)nc2cc1OCCCC(C)C,4.1%
CC(=O)NCC1(c2ccccc2)CCN(CC2COc3ccccc3O2)CC1 (stereo not drawn),1.1%
COc1ccc(C2=Nc3ccccc3NC(=O)C2N(C(=O)c2cc3ccccc3[nH]2)c2ccccc2)cc1 (stereo not drawn),-17.4%
CCCS(=O)(=O)NC(=O)C1(C)CCN(C(=O)c2cccnc2Oc2ccccc2)C1 (stereo not drawn),-1.3%
O=C(NCc1cccnc1)c1cc(C2CCCN(C(=O)c3ccc4c(c3)CCO4)C2)on1 (stereo not drawn),0.5%
CC(C)NC(=O)c1csc([C@@H]2O[C@H](CO)[C@H](O)[C@H](O)[C@H]2O)n1,-4.2%
COC(=O)c1ccc(NC(=O)c2nc(S(=O)(=O)Cc3ccccc3F)ncc2Cl)cc1,6.9%
O=[N+]([O-])c1ccc(/C=C2\C=C(C(O)c3ccc([N+](=O)[O-])cc3)c3ccccc32)cc1 (stereo not drawn),-2.6%
CCn1c(SCC(=O)NCc2ccco2)nnc1-c1cccc(N(C)C)c1,-3.9%
COc1ccc(CN2C(=O)CSCC2(C)C(=O)NCc2ccccc2)cc1OC (stereo not drawn),0.6%
COc1cc2nc(N3CCCN(C)CC3)nc(NC3CC3)c2cc1OC,4.1%
CC(C)(C)c1ccc(CC(=O)N2CCC2(C)C(=O)NS(=O)(=O)Cc2ccccc2)cc1 (stereo not drawn),1.3%
COc1cc(Cn2c3ccc(NC(=S)NCc4ccc(C)cc4)cc3c(=O)n2C)ccc1F,4.4%
COc1ccc(-c2oc3c4c2C(=O)OCCOC4CCC3)cc1 (stereo not drawn),4.6%
CC(=O)ON(C(C)=O)c1ccc(/C=C2/C=Cc3ccccc32)cc1,-1.9%
CC(C)c1cc(Cn2c3ccccc3c(=O)n2C(C)Cn2cc(C3=CCCCC3)nn2)on1 (stereo not drawn),4.4%
OC[C@@H]1CN(Cc2ccc3c(c2)OCO3)C[C@H](n2cnc3c(N4CCCC4)ncnc32)O1,-0.6%
COC(=O)[C@@]12C[C@@H](CC(=O)NCCc3ccccc3OC)C(=O)N(Cc3cccc4ccccc34)C1=CCC(C)(C)C2,-5.7%
CCCNC(=O)C1(C)CCCN(C(=O)c2ccccc2OC)C1 (stereo not drawn),2.1%
CC1(C(=O)NS(=O)(=O)c2cccs2)CCN1C(=O)C1(c2ccc(Cl)cc2)CCC1 (stereo not drawn),1.5%
Cc1ccc2nc(-c3ccc(C)c(NC(=O)COc4ccccc4Cl)c3)oc2c1,-11.1%
O=C(NCC(F)(F)F)c1cc2c(c(-c3cccc(-c4ccccc4F)c3)n1)[C@@H](CCO)N(C(=O)CC1CC1)C2,-4.0%
COc1ccc(NC(=O)C(C2CC2)n2c(=O)c(-c3ccco3)nc3ccccc32)cc1 (stereo not drawn),u
NC(Cc1ccc(Cl)cc1)c1csc(Nc2ccc(S(N)(=O)=O)cc2)n1 (stereo not drawn),-7.3%
COc1ccc(-c2nc3c4ccccc4ccn3c2Cc2cccc(Cl)c2)cc1OC,5.4%
CN(C)c1ccc(/C=C/c2c[n+](C)cc3ccccc23)cc1,-1.2%
CNc1c(Br)cc(/C=C2\C=Cc3ccccc32)cc1Br,1.0%
NC(c1ccc(F)c(F)c1)c1nc(-c2ccc3ccccc3c2)cs1 (stereo not drawn),-1.5%
COc1ccccc1-c1csc(C(C)(O)c2cccc(F)c2)n1 (stereo not drawn),-0.7%
CSCC[C@@H](CO)NC(=O)[C@H]1O[C@@H](n2ccc(N)nc2=O)[C@H](O)[C@@H]1O,1.7%
COc1ccc(CCC(=O)Nc2c(-c3ccc(N(C)C)cc3)[nH][nH]c2=O)cc1,u
COc1ccc(S(=O)(=O)N2CCC[C@H]2C(=O)N2CCC[C@H]2C(=O)NCc2ccc(F)cc2F)cc1C,0.5%
CC1(C(=O)NS(=O)(=O)c2ccccc2Cl)CCN1C(=O)C/C=C/c1ccccc1 (stereo not drawn),-5.6%
CCOC(=O)CC1(C)c2nc(NC(C)=O)sc2Cc2sc(NC(C)=O)nc21,5.4%
CCNC(=O)C1(C)CCN(C(=O)c2cccc(C(F)(F)F)c2)C1 (stereo not drawn),-0.6%
COc1ccc(C(=O)N2CCCC(c3cc(C(=O)NCc4ccc(F)cc4)no3)C2)cc1 (stereo not drawn),-0.3%
CCCN(C)C1CN(Cc2cn(CCCOC)nn2)S(=O)(=O)C1 (stereo not drawn),-2.0%
CCCCNC(=O)c1nc(C2CCN(S(=O)(=O)c3ccc(F)c(F)c3)CC2)oc1-c1ccccc1,-22.6%
CCCc1c(-c2ccc(Cl)cc2)ncn1Cc1ccccc1OC,-0.5%
CC1(C(=O)Nc2ccc(Cl)cc2)Cc2c(-c3ccc4c(c3)OCO4)ccnc2O1 (stereo not drawn),4.5%
O=C(Cc1ccccc1)NCC(=O)OCC(=O)c1cccc2ccccc12,0.5%
COC[C@@H]1CCCN1c1ccc2c(c1)O[C@H](COCc1ccccc1)CN([C@H](C)c1ccccc1)S2(=O)=O,-21.3%
# Remaining list, next part
SMILES,ClpP mod
CC(C)C[C@H]1CNC(=O)C(=O)N1C[C@H](Cc1ccc(O)cc1)NC(=O)Cc1ccccc1,0.3%
COc1ccc(NC(=O)C(c2ccccc2)n2c(=O)c(-c3cc4ccccc4[nH]3)nc3ccccc32)cc1 (stereo not drawn),-13.5%
CC(C)CC(c1nc2ccccc2[nH]1)n1c(-c2ccccc2Br)nc2ccccc21 (stereo not drawn),0.5%
Cn1nc(C(C)(C)C)cc1C(=O)N1CCCCC1c1cc(C(=O)NCc2cccnc2)no1 (stereo not drawn),-3.5%
CCCN1CNc2c(c(=O)[nH]c(=S)n2CCc2cccc(C)c2)C1,-0.7%
COc1ccc(-c2nc3ccc(Cl)cn3c2CC(C)(C)C)cc1OC,-6.2%
O=C1CCSC2=C1SCc1sccc12,3.3%
Cc1cccc(C(O)c2ncc(-c3ccc4ccccc4c3)[nH]2)c1C (stereo not drawn),u
COc1ccc(-c2nc3c(Cl)cc(C(F)(F)F)cn3c2Cc2ccc(C)cc2)cc1OC,5.4%
COc1ccc(OCCN2CCC(C(=O)NC(c3ccc(Cl)cc3)c3ncccc3C)CC2)cc1 (stereo not drawn),-4.4%
CC(C)c1ccc(C(=O)N2CCCCC2c2cc(C(=O)NCc3cccnc3)no2)cc1 (stereo not drawn),-2.4%
COc1ccc(-c2ccc(C(=O)NCCc3ccccc3)c3occc23)c(C)c1,4.7%
CC(C)NC(=O)C1(C)CSCC(=O)N1C1CC1 (stereo not drawn),-0.3%
CCCS(=O)(=O)NC(=O)C1(C)CCCN(C(=O)c2cc(C)nn2C(C)(C)C)C1 (stereo not drawn),0.5%
CCC(=O)N1CCCC1(C)C(=O)Nc1ccc2scnc2c1 (stereo not drawn),1.4%
COc1ccc(C(O)c2nc(-c3ccc(OC)c(OC)c3)cs2)cc1 (stereo not drawn),-0.6%
CC1(C(=O)NS(=O)(=O)c2ccccc2Cl)CCN1C(=O)COc1ccc(Cl)cc1 (stereo not drawn),1.9%
CC1(C(=O)NS(=O)(=O)c2ccccc2C(F)(F)F)CCN1C(=O)c1cccc(F)c1 (stereo not drawn),1.9%
Cn1cc(-c2csc(C(O)(c3ccccc3)C(F)(F)F)n2)cn1 (stereo not drawn),1.0%
CCOc1ccc(-c2cc(C(=O)NCc3ccc(F)cc3)[nH]n2)c(C)c1,-5.5%
CC1(C(=O)NCc2ccc3c(c2)OCO3)CCN1C(=O)C1(c2ccc(Cl)cc2)CC1 (stereo not drawn),-1.7%
Cc1ccc(-c2nnc(SCCC(=O)Nc3ccccc3)n2C)cc1,2.0%
CCOC(=O)[C@]12CCC=C1N(Cc1ccc(Cl)cc1Cl)C(=O)[C@H](CC(=O)NCC13CC4CC(CC(C4)C1)C3)C2,0.1%
CN(CCC#N)c1ccc(/C=C/c2ccnc3ccccc23)cc1,-0.2%
CC(C)(C)C(=O)c1c(N)[nH]c(C(=O)c2ccccc2)c1-c1ccc(Cl)cc1Cl,-1.9%
COc1ccc(-c2cc3nc(NCCCN(C)C)n(C)c(=O)c3s2)c(C)c1,-22.6%
Cc1cccc(C)c1NC(=O)C(C)n1c(-c2ccc(=O)[nH]c2)nc2ccccc21 (stereo not drawn),-24.4%
Cc1ccccc1CC(=O)Nc1ccc2c(c1)c(=O)n(C)n2-c1cccs1,-19.8%
CC1=C(C(=O)N(C(C)C)C(C)C)CC(CC(=O)NCc2ccco2)C(=O)N1CCC1=CCCCC1 (stereo not drawn),-0.7%
CCc1nc2c(OCc3ccc4c(c3)OCO4)cccn2c1N(C=O)Cc1ccc(OC)cc1,-1.4%
O=S1(=O)CC(N2CCN(c3ccccn3)CC2)CN1Cc1ccccc1 (stereo not drawn),-8.5%
Cc1nc([N+](=O)[O-])cn1CC(O)c1ccc2c(c1)OCO2 (stereo not drawn),-0.6%
CC1(C(=O)NS(=O)(=O)c2ccc(C#N)cc2)CCN1C(=O)CC1CCCCC1 (stereo not drawn),0.3%
CC(=O)c1cccc(NC(=O)c2cccc3c(-c4cccnc4)coc23)c1,-2.7%
CNc1nc(NCc2ccc(N(C)C)cc2)c2sccc2n1,-2.9%
CC1(C(=O)Nc2ccc3c(c2)OCCO3)CSCC(=O)N1CCCN1CCOCC1 (stereo not drawn),-2.2%
C[C@H]1CN([C@@H](C)CO)S(=O)(=O)c2ccc(Br)cc2O[C@@H]1CN(C)S(=O)(=O)c1ccccc1F,-0.5%
CCCCn1nnnc1C1(C)CCC(=O)N1CCOc1ccccc1 (stereo not drawn),-4.2%
CC(=O)Nc1ccc(C(=O)N2CCCC(c3cc(C(=O)Nc4ccccc4)no3)C2)cc1 (stereo not drawn),-0.8%

# In the list so far, these contain an aryl thioether with sulfur outside any ring.
SMILES,ClpP mod
CCn1c(SCC(=O)NCc2ccco2)nnc1-c1cccc(N(C)C)c1,-3.9%
Cc1ccc(-c2nnc(SCCC(=O)Nc3ccccc3)n2C)cc1,2.0%

# Filtered by structure: the compounds so far containing an NH in an aromatic ring.
SMILES,ClpP mod
Nc1ncnc2c1[nH]c(=S)n2C1OC(CO)C(O)C1O (stereo not drawn),-0.3%
O=C1C=CC(c2c[nH]c3ccccc23)CC1 (stereo not drawn),-1.2%
O=C(NCCC1=CCCCC1)c1[nH]c(C(F)(F)F)nc1-c1ccccc1,-0.8%
COc1ccc(C2=Nc3ccccc3NC(=O)C2N(C(=O)c2cc3ccccc3[nH]2)c2ccccc2)cc1 (stereo not drawn),-17.4%
COc1ccc(CCC(=O)Nc2c(-c3ccc(N(C)C)cc3)[nH][nH]c2=O)cc1,u
COc1ccc(NC(=O)C(c2ccccc2)n2c(=O)c(-c3cc4ccccc4[nH]3)nc3ccccc32)cc1 (stereo not drawn),-13.5%
CC(C)CC(c1nc2ccccc2[nH]1)n1c(-c2ccccc2Br)nc2ccccc21 (stereo not drawn),0.5%
CCCN1CNc2c(c(=O)[nH]c(=S)n2CCc2cccc(C)c2)C1,-0.7%
Cc1cccc(C(O)c2ncc(-c3ccc4ccccc4c3)[nH]2)c1C (stereo not drawn),u
CCOc1ccc(-c2cc(C(=O)NCc3ccc(F)cc3)[nH]n2)c(C)c1,-5.5%
CC(C)(C)C(=O)c1c(N)[nH]c(C(=O)c2ccccc2)c1-c1ccc(Cl)cc1Cl,-1.9%
Cc1cccc(C)c1NC(=O)C(C)n1c(-c2ccc(=O)[nH]c2)nc2ccccc21 (stereo not drawn),-24.4%
